# 2A Renilla: lowers the Renilla signal of an FMDV 2A StopGo reporter; HEK cells with a luciferase reporter of 2A StopGo recoding; AID 1745857; Potency, µM (doses to about 57.5 µM), for inactives: at the top dose signal change, negative = less light; 120,000 compounds, 0.32% hits; active means well fitted falling curve with a large enough effect; inconclusive means small, poorly fitted or top-dose-only effect; inactive means no such curve, though single readings can be large or run the other way; also: nearly all actives have a fitted effect of over 55% in size; overnight with compound
# StopGo FLuc: lowers the firefly signal of an FMDV 2A StopGo reporter; HEK cells with a luciferase reporter of 2A StopGo recoding; Potency, µM (top dose mostly 57.5 µM), without a hit: top-dose signal change, negative = less light; 120,000 compounds, 0.23% hits; active = well fitted falling curve with a large enough effect; inconclusive = small, poorly fitted or top-dose-only effect; inactive = no such curve, though single readings can be large or run the other way; also: nearly all actives have a fitted effect of over 60% in size; overnight with compound
# An asterisk follows results filed as active; ? = inconclusive; [ ] = another dose, or the depositor's remark. % is scaled to controls: 0 for no effect and ±100 for the full control effect; potency is read from the fitted curve at half-maximal effect. A portion of the library; the hit share may differ from the screen's.
SMILES,2A Renilla,StopGo FLuc
COc1ccc(-c2nonc2NC(=O)c2ccc(OCC(C)C)cc2)cc1OC,9%,0%
Cc1ccc2oc(=O)n(Cc3ccccc3Cl)c2c1,2%,-3%
CCOC(=O)C(NC(=O)[C@@H](NC(=O)c1ccc(Cl)cc1Cl)C(C)C)C(=O)OCC,-6%[1.06 µM],-3%
Cc1ccc(C)c(CS(=O)(=O)Cc2noc(C(C)(C)C)n2)c1,2%,2%
Cn1nc(C(=O)Nc2cc(Cl)ccc2N2CCCC2)c2ccccc2c1=O,5%,9%
CCCCCCn1nc(C(=O)OC(C)C(=O)NC(N)=O)c2ccccc2c1=O (stereo unspecified),17%,21%
O=C(CSc1nc2ccccc2s1)C12CC3CC(CC(C3)C1)C2,17%,0%
CCOc1ccccc1-c1nc(C(N)=O)c2c(n1)n(-c1ccc3c(c1)OCO3)c(=O)n2C,-5%,8%
Cc1nc(C#N)c(N2CCN(C(=O)CN(C)C3CCCCCC3)CC2)o1,-10%,-14%
CC(C)C(=O)N1CCN(C(=O)c2cn(C)c3ccccc23)CC1,-2%,-7%
CCOC(=O)C1CCN(C(=O)Cn2nc(C)n3c(cc4c(OC)cccc43)c2=O)CC1,-11%,3%
Cc1ccc(NS(=O)(=O)c2cc(Br)cc3c2N(C(=O)C2CC2)CC3)cc1C,?,?
CSc1ccccc1NC(=O)c1ccc2c(c1)NC(=O)CO2,-13%,20%
CCCOC(=O)c1nc2ccccc2nc1N1CCN(c2ccc(F)cc2)CC1,-2%,-4%
Cc1ccc(CNc2ccc(-c3nc(-c4ccncc4)no3)cc2[N+](=O)[O-])cc1,3%,3%
CCONC(=O)C(C)Oc1cccc(C#N)c1 (stereo unspecified),17%,10%
CC(=O)c1cccc(NC(=O)CN(c2cc(C)cc(C)c2)S(=O)(=O)c2c(C)noc2C)c1,8%,-17%
Cc1ccc(C23CC4CC(CC(Cl)(C4)C2)C3)cc1[N+](=O)[O-],15%,16%
Cc1ccc(NC(=O)Cn2c(=O)n(-c3ccc(Cl)c(Cl)c3)c(=O)c3c(C)c(C)sc32)c(C)c1,-10%,-13%
Cc1ccc2occ(CC(=O)N(Cc3ccccc3Cl)C3CCS(=O)(=O)C3)c2c1 (stereo unspecified),24%,-12%
CCOc1ccccc1NC(=O)C1CCCN(S(C)(=O)=O)C1 (stereo unspecified),5%,-13%
COc1cc(C2C(C(=O)Nc3ccc(Cl)cc3)=C(C)Nc3nc(SC)nn32)cc(OC)c1OC (stereo unspecified),-11%,-17%
Cc1ccc(C)c(S(=O)(=O)Nc2nc3ccccc3nc2NCc2ccccc2)c1,196%[activator],1%
COc1ccc(S(=O)(=O)N(CC(=O)NC(C)c2ccccc2)c2ccc(C)cc2)cc1OC (stereo unspecified),-16%,?
COC(=O)c1sccc1S(=O)(=O)N(CC(=O)Nc1ccccc1F)c1ccccc1,44%[activator],70%[activator]
COc1cc(OC)cc(C(=O)Nc2ccc3oc(-c4cccc5c(Br)cccc45)nc3c2)c1,-13%,-1%
Clc1ccc(CSc2ccc(-c3cccs3)nn2)cc1,-19%,-10%
Oc1ccc(-c2nc(-c3cc4ccccc4o3)cs2)cc1,11%,234%[activator]
Cn1cc(C(=O)OCC(=O)NC(=O)NC(C)(C)C)c2ccccc21,-2%,10%
COc1ccc(CCNS(=O)(=O)c2cc(-c3cc(C)no3)ccc2OC)cc1OC,139%[activator],-11%

# Looked up above.
# StopGo FLuc, `CCOc1ccccc1-c1nc(C(N)=O)c2c(n1)n(-c1ccc3c(c1)OCO3)c(=O)n2C` = 8%
# StopGo FLuc, `Cc1ccc(C)c(CS(=O)(=O)Cc2noc(C(C)(C)C)n2)c1` = 2%
# StopGo FLuc, `Cn1cc(C(=O)OCC(=O)NC(=O)NC(C)(C)C)c2ccccc21` = 10%

# Following part.
SMILES,2A Renilla,StopGo FLuc
COc1ccc(NC(=O)c2sc3nc4c(cc3c2N)CCCCCC4)cc1,-13%,69%[activator]
Cc1nc2scc(C)n2c(=O)c1S(=O)(=O)Nc1ccc(N2CCN(C(=O)C(C)C)CC2)cc1,6%,-13%
COc1ccc(NC(=O)CSc2nccnc2N2CCN(c3ccccc3OC)CC2)cc1OC,9%,19%
CC(C)CCNC(=O)C1(C)Cn2nc(C(=O)NCCN3CCCCCC3)cc2C(=O)N1C (stereo unspecified),-7%,-4%
CCNC(=O)NC(=O)CN(CC)c1cccc(C)c1,-4%,-3%
CCCn1c(N)c(N(CCOC)C(=O)c2ccccc2)c(=O)[nH]c1=O,7%,21%
COc1ccc(NC(=O)c2ccc3nc(-n4cccc4)sc3c2)cc1,-5%,71%[activator]
O=C(NCCc1ccccc1)C12CC3CC(CC(C3)C1)C2,27%,151%[activator]
O=C(COC(=O)C12CC3CC(CC(Br)(C3)C1)C2)c1ccc(C2CCCCC2)cc1,-2%,-10%
Cc1cc(N2CCCCS2(=O)=O)cc(C)c1S(=O)(=O)N(C)CCc1ccncc1,?,?

# Taken from the listing for reference:
SMILES,2A Renilla,StopGo FLuc
Cn1cc(C(=O)OCC(=O)NC(=O)NC(C)(C)C)c2ccccc21,-2%,10%
COc1ccc(CCNS(=O)(=O)c2cc(-c3cc(C)no3)ccc2OC)cc1OC,139%[activator],-11%

# (more compounds)
SMILES,2A Renilla,StopGo FLuc
N#C/C(=C\c1ccc(-c2ccc(Cl)cc2Cl)o1)c1nc2ccccc2[nH]1,-5%,23%
Cc1c(-c2ccccc2)[n+](=O)c(-c2ccco2)c(C)n1[O-],10%,32%[activator]
CCOc1ccccc1NC(=O)Nc1ccc(CN2CCOCC2)cc1,-6%,121%[activator]
CC(=O)Nc1ccc(-c2nc3ccccc3s2)cc1C,7%,-72%
Cc1ccc(C(=O)NCC(c2ccc3c(c2)OCO3)N2CCOCC2)cc1C (stereo unspecified),66%[activator],-16%
CCOc1cccc(C(=O)Nc2nc(-c3ccc(S(=O)(=O)N4CCOCC4)cc3)cs2)c1,-3%,7%
CCCn1c(SCc2ccccc2)nc2c1c(=O)[nH]c(=O)n2C,-14%,-14%
Cc1oc2ncn(CC(C)C)c(=O)c2c1C(=O)NCCCN(Cc1ccccc1)C(C)C,1%,-10%
Cc1cccc(C)c1NC(=O)c1cc2cc(Br)ccc2oc1=O,8%,19%
Fc1ccc(-c2cc(-c3nc(-c4cccc(Cl)c4)no3)[nH]n2)cc1,-13%,-13%
CCOC(=O)c1[nH]c(C)c(CCC(=O)N2CCC(C(=O)NCCN3CCN(CC)CC3)CC2)c1C,-9%,-6%
C=CCN1CCN(Cc2ccco2)CC1,-1%,22%
CCOCCCNCc1sccc1C,-13%,-7%
O=C(COc1ncnc2ccc(Br)cc12)Nc1cccc(F)c1,11%,21%
Cc1ccc(-n2nc(C)c3c(C(=O)Nc4ccccc4C(F)(F)F)cc(C)nc32)cc1,-2%,-8%
O=C(O)CCCC(=O)N1CCN(C(=O)c2ccco2)CC1,13%,14%
CCCn1c(C)c(C)c(-c2nc3ccccc3[nH]2)c1NC(=O)CC(C)C,-1%,5%
C#CCN1CCCCC1C(=O)NCC1CCCCC1 (stereo unspecified),4%,?
Cc1c(C)n(CCO)c2ncn3nc(CSc4nc5ccccc5o4)nc3c12,2%,14%
CCCn1c(CCC(=O)Nc2cc(Cl)c(OC)cc2OC)nc2cccnc21,-10%,-12%
CCOC(=O)C1CCCN(C(=O)c2ccc3c(c2)N(Cc2ccccc2)C(=O)c2ccccc2S3=O)C1 (stereo unspecified),58%[activator],-5%
CN(CC(=O)NCc1ccc(F)cc1)S(=O)(=O)c1ccc2[nH]c3c(c2c1)CCCC3,45%[activator],?
COc1ccc(CNC(=O)NOCc2ccccc2)cc1OC,13%,13%
Cc1ccc(C(=O)Nc2c(C(=O)NCc3ccc(Cl)cc3)sc3nc(C)cc(C)c23)cc1,?,?
CC(C)c1ccc(NC(=O)C(Cc2ccccc2)n2cccc2)cc1 (stereo unspecified),3%,7%
N#Cc1ccccc1COC(=O)c1cccc2ccccc12,46%[activator],180%[activator]
CCCCc1c(C)nn(-c2nc(C)c(C(=O)Nc3ccc(OC)cc3)s2)c1C,-9%,2%
O=C1CN(CC(=O)Nc2cc(Cl)cc(Cl)c2)CCN1,-9%,-10%
CC(C)OCCCNC(=O)CCCn1c(SCC(=O)c2ccc(F)cc2)nc2c(sc3ccccc32)c1=O,-13%,-9%
COc1ccc(-n2nc(C(=O)N(C)c3cc(C)ccc3C)c3c4ccccc4n(C)c3c2=O)cc1Cl,-14%,-21%

# In the list so far, 7 have fluorine:
SMILES,2A Renilla,StopGo FLuc
CCCOC(=O)c1nc2ccccc2nc1N1CCN(c2ccc(F)cc2)CC1,-2%,-4%
COC(=O)c1sccc1S(=O)(=O)N(CC(=O)Nc1ccccc1F)c1ccccc1,44%[activator],70%[activator]
Fc1ccc(-c2cc(-c3nc(-c4cccc(Cl)c4)no3)[nH]n2)cc1,-13%,-13%
O=C(COc1ncnc2ccc(Br)cc12)Nc1cccc(F)c1,11%,21%
Cc1ccc(-n2nc(C)c3c(C(=O)Nc4ccccc4C(F)(F)F)cc(C)nc32)cc1,-2%,-8%
CN(CC(=O)NCc1ccc(F)cc1)S(=O)(=O)c1ccc2[nH]c3c(c2c1)CCCC3,45%[activator],?
CC(C)OCCCNC(=O)CCCn1c(SCC(=O)c2ccc(F)cc2)nc2c(sc3ccccc32)c1=O,-13%,-9%

# (further entries)
SMILES,2A Renilla,StopGo FLuc
CCCN(CCC)CCNC(=O)c1cc(-c2ccc(Br)s2)nc2ccccc12,0%,4%
CC(=O)c1cccc(NS(=O)(=O)c2ccc3[nH]c4c(c3c2)CCCCC4)c1,94%[activator],?
COc1cccc(N2CCN(C(=O)CCc3c(C)nc4c(c3C)c(=O)n(C)c(=O)n4C)CC2)c1,-8%,-26%
C#CCOC(=O)c1cccc(C(=O)O)c1,5%,8%
Oc1c(Br)cc(Br)cc1-c1nc2ccccc2s1,-7%,8%
C[C@@H](O)[C@H](N)C(=O)O,-11%[23.8 µM],-20%[27 µM]
COc1ccc(-c2n[nH]c3c2C(c2ccc(O)cc2)N(c2ccc(Br)cc2)C3=O)cc1 (stereo unspecified),1%,?
O=C(CSc1ncnc2ccccc12)NCCCO,10%,9%
O=C(CN1C(=O)CCc2cc(S(=O)(=O)N3CCOCC3)ccc21)NCc1ccccc1,-13%,-17%
Cc1ccc(SC(C)C(=O)Nc2cccc(F)c2)cc1 (stereo unspecified),-15%,-17%
COc1ccc(CNc2nc(-c3ccco3)nn2C(=O)c2ccccc2C)cc1,127%[activator],323%[activator]
O=C(Nc1ccc2ccccc2n1)c1ccc(S(=O)(=O)N2CCCC2)cc1,?,-52%
O=C(CCSc1nc(Cl)nc2nc[nH]c12)NCCc1ccc(O)cc1,-2%,-11%
Cc1nc2ccccc2c(C)c1C(=O)c1ccc(Cl)cc1,-16%,-15%
O=c1[nH]c2cc3c(cc2c(=O)n1CCc1nc(-c2ccc(C(F)(F)F)cc2)no1)OCO3,3%,6%
Cc1ccccc1C(=O)n1nc(NCc2cccs2)nc1NCc1cccs1,30%,-10%
CCOC(=O)CC(NC(=O)CCc1c(C)nc2c(-c3ccccc3)c(C)nn2c1C)c1ccc(C)cc1 (stereo unspecified),5%,1%
COc1ccc(-c2cc(C(=O)N3CCCC3)c3cc(Br)ccc3n2)cc1,27%,0%
Cc1ccc2[nH]c(=O)c(COC(=O)c3cccs3)cc2c1,-6%,-4%
Cc1cc(C)c(C)c(OCC(=O)Nc2ccc(S(=O)(=O)Nc3nccs3)cc2)c1,41%[activator],9%
COc1ccccc1NC(=O)CCn1nc(-c2ccccc2)c2ccccc2c1=O,17%,12%
CCOC(=O)c1cccc(Nc2c3c(nc4ccccc24)CCC3)c1,-23%,-28%
Cc1cc(Cl)ccc1NC(=O)C1CCCN1S(=O)(=O)c1ccc2c(c1)CCCC(=O)N2 (stereo unspecified),?,?
CCc1ccc(NC(=O)C2CCC(CNS(=O)(=O)c3ccc4c(c3)CC(C)N4C(C)=O)CC2)cc1 (stereo unspecified),-4%,-23%
COc1cc(C)c(CN(C)CC(O)COc2ccc(C)cc2)cc1OC (stereo unspecified),0%,8%
Cc1ccccc1COc1cccc(CNc2ccccc2)c1,11%,98%[activator]
Cc1cccc(N2CCN(C(=O)c3ccc(CS(=O)c4cccc(Cl)c4)o3)CC2)c1C (stereo unspecified),-18%,?
O=C(Cn1c(=O)c2c(ncn2C2CCCC2)n(Cc2ccccc2)c1=O)NCc1ccccc1Cl,7%,-9%
COc1cc(C)cc2oc(=O)c(CC(=O)Nc3cccc(C(C)=O)c3)c(C)c12,-6%,0%
N#Cc1nc(-c2ccc(S(=O)(=O)N3CCCCC3)cc2)oc1NCCN1CCOCC1,97%[activator],-6%
CC(=O)N1CCC(N(Cc2ccco2)C(=O)Nc2ccccc2C(F)(F)F)CC1,-7%,-6%
N#Cc1cccc(C(=O)/C=C/c2cccs2)c1,8%,27%
CCC(C)n1c(=O)c2sccc2n2c(CCCC(=O)Nc3ccc(F)cc3)nnc12 (stereo unspecified),-6%,-4%
Cc1ccc(Oc2ccc(NC(=O)c3nn(C)c(=O)c4ccccc34)cc2)cc1,-10%,-5%
CC(CC#N)NCc1ccc(CN2CCN(C)CC2)cc1 (stereo unspecified),-14%,-5%
O=C(O)/C=C/c1ccc(-c2ccccc2)s1,10%,?
Cc1ccc(C2=C(O)C(=O)N(Cc3ccco3)C2c2ccc(C(C)C)cc2)cc1 (stereo unspecified),-4%,1%
CC(C)CCNC(=O)c1ccc2c(c1)N(Cc1ccccc1F)C(=O)c1ccccc1S2=O (stereo unspecified),20%,-10%
CCc1nn(C(CC)C(=O)NCc2ccccc2C)c(=O)c2cc3oc(C)cc3n12 (stereo unspecified),?,?
N#CCC1CN2CCC1C(c1ccccc1)C2 (stereo unspecified),12%,6%

# Compound activity deposited in PubChem by National Center for Advancing Translational Sciences (NCATS).
